INS promoter inh – TRM-6 insulin promoter activity inhibition; TRM-6 cells (human fetal islet line), insulin promoter-eGFP reporter, imaging; reporter expression induced with tamoxifen; 130,000 compounds, 0.9% hits; AID 1273; inhibition, % at 2 µM;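 active = inhibition above the mean plus 3 SD, with well images judged a real hit on visual review, cut at about 60% in these data, passing the limit was not always enough; inconclusive = inhibition over the cutoff but images rejected on review; inactive = inhibition not above the cutoff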
HSV replic up – HSV replication enhancement; HSV replication augmentation in cells, fold increase; maximum fold increase; 220,000 compounds, 0.005% hits; AID 1956;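 active = peak rise of 1.5-fold or more in the series; inconclusive = self-fluorescent or not available for retest; tested in PC3 cells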;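 note: first round at 10 µM; read as green reporter fluorescence; hits show the peak of a series up to 25 µM; 1 = signal of infected wells without compound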
PKD1 kinase inh – blocks activity of human protein kinase D1; inhibition, %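 (about 10 µM by stock and volumes)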; PKD1 kinase fluorescence polarization assay; Q15139; 200,000 compounds, 0.056% hits;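 active = inhibition of 50% or more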;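 note: controls were vehicle for no effect and a reference inhibitor for full effect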
GALR2 ag – agonists of human galanin receptor 2 (GALR2). O43603. GALR2-expressing cells, agonist activation read-out. activation, %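 (tested at 5 µM)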. 140,000 compounds, 0.48% hits;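 active = above mean plus 3 SD of all compounds, about 5% in these data, not always enough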;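 note: 0% = vehicle buffer wells and 100% = reference agonist at full effect; tested in CHO reporter cells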
Target sequence (O43603 whole entry, looked up): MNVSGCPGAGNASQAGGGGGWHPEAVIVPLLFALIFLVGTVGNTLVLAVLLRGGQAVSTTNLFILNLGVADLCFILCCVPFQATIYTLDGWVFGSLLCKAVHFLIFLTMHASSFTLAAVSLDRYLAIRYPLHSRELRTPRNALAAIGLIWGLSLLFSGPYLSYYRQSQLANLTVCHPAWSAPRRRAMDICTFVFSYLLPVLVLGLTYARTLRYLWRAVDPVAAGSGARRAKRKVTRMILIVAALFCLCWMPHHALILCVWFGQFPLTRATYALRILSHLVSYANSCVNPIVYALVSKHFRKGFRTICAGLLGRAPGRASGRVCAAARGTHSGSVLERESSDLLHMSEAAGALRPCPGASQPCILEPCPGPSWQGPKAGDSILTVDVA
RGS16-Gao – modulates binding between human RGS16 and Galphao | O15492+P09471 | bead-based flow cytometry RGS16-Galphao binding, fluorescence; actives lie on both sides | 220,000 compounds, 0.38% hits | binding response (% of control), % at 10 µM;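 active = below 25% or above 175%, edge rows of some plates excepted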;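 note: Galphao activated by GDP with aluminum fluoride before binding; 100% = wells without compound and 0% = beads without RGS; some results beyond the cut were filed as inactive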
Target sequence (O15492 whole entry, looked up): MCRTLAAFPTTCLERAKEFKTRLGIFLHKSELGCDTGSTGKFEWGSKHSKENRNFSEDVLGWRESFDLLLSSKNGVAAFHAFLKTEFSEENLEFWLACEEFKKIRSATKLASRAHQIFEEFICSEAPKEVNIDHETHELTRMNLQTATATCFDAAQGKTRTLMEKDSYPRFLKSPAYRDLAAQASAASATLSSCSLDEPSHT
Target sequence (P09471 whole entry, looked up): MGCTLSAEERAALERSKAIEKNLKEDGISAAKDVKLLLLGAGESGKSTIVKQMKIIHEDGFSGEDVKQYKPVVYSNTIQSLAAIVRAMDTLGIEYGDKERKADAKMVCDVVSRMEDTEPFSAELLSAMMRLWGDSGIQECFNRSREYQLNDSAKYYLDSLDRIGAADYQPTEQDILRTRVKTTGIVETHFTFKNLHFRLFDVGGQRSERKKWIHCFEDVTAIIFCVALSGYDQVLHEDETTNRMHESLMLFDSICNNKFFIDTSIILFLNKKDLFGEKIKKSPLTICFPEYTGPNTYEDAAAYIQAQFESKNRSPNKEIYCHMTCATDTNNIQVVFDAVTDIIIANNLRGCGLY
INS promoter inh cell count – further read-out of INS promoter inh, marked with its call; normalized cell count, %; measured here: cell count, toxicity; reference of the scale not given here;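 cells exposed to compound for 48 h; stained nuclei by imaging scaled within each plate; lower means fewer cells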
HSV replic up primary fold – further read-out of HSV replic up, marked with its call; fold increase; compound at 10 µM; measured here: primary screen fold increase 10 uM; tested in PC3 cells;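 GFP signal in the first replicate; 1 = infected wells without compound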
Starred values were filed as active, the others as inactive; i = inactive; ? = inconclusive; . = no result given.

Every second line gives: INS promoter inh, INS promoter inh cell count, HSV replic up, HSV replic up primary fold, PKD1 kinase inh, GALR2 ag, RGS16-Gao
> O=S(=O)(Nc1ccccn1)c1ccc(Cl)c2ccccc12
    ., ., i, 0.93, 4, ., 101
> O=c1c2c3c(sc2nc2n1CCC2)CCC3
    -75, 110, i, 1, 2, -1.3, 103
> O=C(O)CCCNS(=O)(=O)c1ccccc1
    -5, 95, i, 1.1, -7, -1.4, 111
> CCOC(=O)C1CCN(c2c(NCCN3CCCCC3C)c(=O)c2=O)CC1 (configuration not stated)
    ., ., i, 0.88, -16, -0.8, 102
> CC(C)C(NC(=O)C(NC(=O)C1O[C@@H]2OC(C)(C)O[C@@H]2[C@H]2OC(C)(C)O[C@@H]12)C(C)C)C(=O)O (some centres not stated)
    ., ., i, 1.1, -2, ., 101
> COc1cc2c3c(c1)/C(=C1/SC(=S)NC1=O)C(=O)N3C(C)(C)C=C2C
    -44, 84, i, 1, 8, -0.5, 99
> CN(C)c1nc(N/N=C/c2ccccc2O)nc(Nc2ccc(F)cc2)n1
    ., ., i, 0.96, -3, ., 149
> O=C(COC(=O)CSc1ccc2ccccc2c1)NCc1ccc2c(c1)OCO2
    21, 133, i, 0.91, 0, -0.2, 100
> Cc1csc(N(C(=O)c2ccccc2F)c2ccccc2)n1
    ., ., i, 1, -3, ., 96
> COc1ccc(CNc2ccc(S(N)(=O)=O)cc2)c(OC)c1OC
    ., ., i, 1.2, 3, -1.2, -180
> CC(C)NS(=O)(=O)c1ccc(CCC(=O)O)cc1
    27, 138, i, 0.9, -13, -2.0, 107
> CN1CCN(C(=O)c2ccc(N(Cc3ccc(Cl)cc3)S(C)(=O)=O)cc2)CC1
    ., ., i, 0.87, -7, -0.4, 103
> COc1ccc(-c2nn(-c3ccccc3)cc2/C=C\C(=O)N2CCOCC2)cc1[N+](=O)[O-]
    ., ., i, 0.78, -7, ., 98
> O=C(N/N=C/c1ccco1)c1ccccc1OCc1ccc(Br)cc1
    -43, 100, i, 0.94, -1, 0.9, 107
> CCCn1c(N)c(C(=O)CSc2nc3ccccc3n2CCC#N)c(=O)n(C)c1=O
    ., ., ?, ., -3, 0.4, 109
> Cc1ccccc1C(=O)N/N=C/c1ccccn1
    0, 109, i, 0.94, -1, 0.5, 86
> O=C(CN1CCOCC1)NNc1nc(-c2ccccc2)c2cc(Br)ccc2n1
    ., ., i, 0.95, 0, ., 99
> COc1cc(NC(=O)c2ccnnc2)cc(C(=O)Nc2cccc(C(F)(F)F)c2)c1
    ., ., i, 0.88, ., ., 105
> COc1ccccc1N1CCN(C(=O)c2ccc3c(Cl)c4c(nc3c2)CCCC4)CC1
    10, 95, ?, ., -14, 0.7, 102
> COc1ccc(N(CC(=O)NN=C2CCCC2)S(=O)(=O)c2ccccc2)cc1
    ., ., i, 0.83, 9, -1.7, 97
> Cc1[nH]c2ccccc2c1/C=C/c1nc2ccccc2c(=O)n1-c1ccc([N+](=O)[O-])cc1
    -24, 93, i, 1, -1, 3.0, 96
> CCn1cc(C(=O)NCCCN2CCCC2)c(=O)c2cc(S(=O)(=O)N3CCc4ccccc4C3)ccc21
    29, 66, ., ., -7, ., 160
> COc1ccc(NS(=O)(=O)c2cccs2)cn1
    7, 138, i, 1, -5, ., 114
> Cc1[nH]c2ccccc2c1/C=N/NC(=O)c1cc(C(C)(C)C)[nH]n1
    ., ., i, 0.81, ., ., 99
> O=C(c1ccccc1F)N1CCN(S(=O)(=O)c2ccc3c(c2)OCCO3)CC1
    ., ., i, 0.97, 1, -2.2, 110
> Cc1cc(C)cc(NS(=O)(=O)c2cc(C(=O)NCc3ccccn3)ccc2Cl)c1
    ., ., i, 0.97, -1, -0.3, 104
> NS(=O)(=O)c1cc(C(=O)OCC(=O)Nc2ccc(Cl)cc2[N+](=O)[O-])ccc1Cl
    11, 133, i, 1.1, 4, ., 102
> O=C1CSC(c2ccccc2)N1c1nnc(C23CC4CC(CC(C4)C2)C3)s1 (configuration not stated)
    29, 116, i, 1, -8, -4.3, 100
> N#CC(c1ccc(O)cc1)c1ncc(C(F)(F)F)cc1Cl (configuration not stated)
    ., ., i, 1.1, 3, ., 102
> CSc1cccc(NC(=O)Nc2ccc(Cl)cc2)c1
    -8, 62, i, 1, -2, -1.9, 97

Every second line gives: INS promoter inh, INS promoter inh cell count, HSV replic up, HSV replic up primary fold, PKD1 kinase inh, GALR2 ag, RGS16-Gao
> O=S(=O)(NC1CC1)c1ccc(S(=O)(=O)N2CCCC(c3nc(-c4cccnc4)no3)C2)cc1 (configuration not stated)
    -42, 74, i, 0.96, 0, -0.2, 101
> CC(C)N1CCC2(CC1)C(C#N)=C(N)NC(S)=C2C#N
    ., ., i, 1.1, 8, -0.6, 83
> Cc1nnc2sc(SCc3ccc(Cl)cc3)nn2c1=O
    ., ., i, 0.99, -7, -0.5, 35
> O=C(O)c1cc(Cl)c2ccccc2c1O
    -24, 99, i, 0.91, -2, -0.9, 101
> O=C(OCc1nc2ccccc2s1)C1CCN(C2=NS(=O)(=O)c3ccccc32)CC1
    -48, 125, i, 1.1, 4, -1.5, 65
> COc1ccc(CCNC(=O)COc2ncnc3ccccc23)cc1
    11, 128, i, 0.95, -7, ., 107
> CCCCOc1ccc(NC(=O)Cn2c(=O)ccc3c(C)cc(C)nc32)cc1
    -3, 70, i, 0.98, -8, -0.7, 104
> CN(C)C/C(Cl)=C(\Cl)c1ccccc1
    -136, 102, i, 0.94, -12, -1.0, 97
> FC(F)(F)c1nc(Oc2ccccc2)c2ccccc2n1
    -28, 80, i, 0.85, -6, -1.3, 101
> COc1ccc(C(C(=O)Nc2ccc(C(C)C)cc2)N(C)C(=O)c2ccc(=O)[nH]c2)cc1 (configuration not stated)
    ., ., i, 0.87, -2, ., 96
> CCn1c(SCC(=O)Nc2ccc3c(c2)OCO3)nnc1-c1ccccc1O
    -31, 95, i, 0.88, 6, -3.2, 99
> CC(C)(C)C(=O)O/N=C(\N)c1ccc([N+](=O)[O-])s1
    ., ., i, 1, ., ., 107
> CC1=C(C(=O)c2ccccc2)C(c2ccc(N3CCOCC3)cc2)NC(=O)N1 (configuration not stated)
    -27, 62, i, 1.3, -1, ., 111
> O=C(Nc1nnc(COc2ccc(Cl)cc2)s1)c1cccs1
    80*, 104*, ?, ., 1, -2.2, 104
> CC(C)OC(=O)c1ccc(COC(=O)c2cnccn2)cc1
    ., ., i, 1, 2, ., 97
> Nc1ncnc(Sc2ncccn2)c1[N+](=O)[O-]
    ., ., i, 0.74, 2, ., 97
> CCSc1n[nH]c2nc3c(c(=O)n12)C1(CCCCC1)Cc1ccccc1-3
    ., ., i, 0.96, ., ., 102
> CCn1c(=O)c(C(=O)CN2CCc3ccccc32)c(N)n(Cc2ccccc2)c1=O
    ., ., i, 1.9, -2, -0.5, 100
> CCC(=O)Nc1cccc(-n2nnnc2SCC(=O)NCc2ccco2)c1
    7, 101, i, 0.91, 4, -3.0, 93
> Cc1cc(C(=O)NC2=NCCS2)cs1
    38, 159, i, 0.78, -3, -3.3, 102
> Nc1cc(C(=O)O)c(Oc2ccc(Cl)cc2Cl)cc1C(=O)O
    67*, 138*, i, 1, -7, -2.0, 108
> COc1ccc(CN2CCn3ncc(C(=O)Nc4ccc(Cl)cc4Cl)c3C2=O)cc1
    14, 172, i, 1.1, -17, -0.6, 37
> CCCCn1c(O)c(C(CC)=Nc2ccc3c(c2)CCC3)c(=O)[nH]c1=O
    -43, 70, i, 0.86, -2, -1.7, 96
> CCOC(=O)c1c(-c2ccc(C)o2)csc1NC(=O)CSc1nncs1
    15, 130, i, 0.74, -1, -2.1, 98
> O=C(O)CC1(CC(=O)Nc2cc3ccccc3cn2)CCCCC1
    ., ., i, 1.1, ., ., 107
> CCCCNC(=O)CN(c1cc(C(F)(F)F)ccc1Cl)S(C)(=O)=O
    ., ., i, 0.88, 4, -0.7, 99
> C/C(=N\NC(=O)CC(C)C)c1c(C(F)(F)F)[nH]n(-c2nc3ccccc3s2)c1=O
    ., ., i, 1.2, ., ., 101
> COc1cc(C(=O)OCC(=O)NC(=O)C2CCCCC2)ccc1OC(F)F
    ., ., i, 0.97, -9, ., 107
> Cc1c(NC(=O)NC(C)N2C(=O)C3C4C=CC(C4)C3C2=O)c(=O)n(-c2ccccc2)n1C (configuration not stated)
    -42, 114, i, 1, 7, -1.6, 101
> O=C(Nc1ncc(Cc2ccccc2Cl)s1)C1=NCCN1
    -39, 85, i, 0.99, 10, 0.0, 94

Next part; the last 2 above are carried over.
Every second line gives: INS promoter inh, INS promoter inh cell count, HSV replic up, HSV replic up primary fold, PKD1 kinase inh, GALR2 ag, RGS16-Gao
> Cc1c(NC(=O)NC(C)N2C(=O)C3C4C=CC(C4)C3C2=O)c(=O)n(-c2ccccc2)n1C (configuration not stated)
    -42, 114, i, 1, 7, -1.6, 101
> O=C(Nc1ncc(Cc2ccccc2Cl)s1)C1=NCCN1
    -39, 85, i, 0.99, 10, 0.0, 94
> CCOc1ccc(N=Nc2c(=O)[nH]n3c(C)cc(C)nc23)cc1
    -67, 86, i, 0.84, -5, 0.1, 97
> O=[N+]([O-])c1ccc(CN2C=NS(=O)(=O)c3ccccc32)cc1
    33, 85, i, 0.9, 0, ., 107
> CCN(CC)S(=O)(=O)c1cc(NC(=O)C(C)N(C)CC(=O)Nc2c(C)cccc2C)ccc1C (configuration not stated)
    -67, 86, i, 0.85, 0, 0.0, 85
> O=C(O)C1CCCCC1C(=O)NCCc1ccncc1 (configuration not stated)
    -100, 86, i, 0.92, -2, -1.2, 112
> N#C/C(=C\c1cn(CCOc2ccccc2)c2ccccc12)C(=O)NCc1ccco1
    8, 133, i, 0.73, -1, -0.1, 100
> O=[N+]([O-])c1nn(-c2ccccc2)[n+]([O-])c1N1CCN(c2ccccc2F)CC1
    50, 81, i, 0.95, 0, ., 88
> Cc1nc2sc(C(c3ccco3)N3CCOCC3)c(O)n2n1 (configuration not stated)
    6, 124, i, 0.93, -8, -2.2, 103
> COC(=O)C(O)(CC(=O)Nc1cc(OC)c(OC)c(OC)c1)C(F)(F)F (configuration not stated)
    37, 120, i, 0.91, -10, -1.9, 115
> Cc1cc(C)c(-n2nnnc2SC(C)C)c(C)c1
    17, 70, i, 1.1, -7, -1.1, 89
> CCc1nnc(NC(=O)c2ccc(-c3ccc(Cl)cc3)o2)s1
    50, 111, i, 1, 2, -0.3, 98
> CCN(CC)S(=O)(=O)c1cccc(-c2n[nH]c(=S)n2/N=C/c2ccc(Br)cc2)c1
    -438, 69, ., ., -2, 0.1, 93
> O=C(NC1CCCCCC1)c1cc(S(=O)(=O)N2CCCCC2)ccc1N1CCOCC1
    27, 97, i, 1.1, -2, ., 99
> CC1CCOC2(O1)C(=O)Nc1ccccc12 (configuration not stated)
    -18, 50, i, 0.95, 0, ., 97
> COc1ccc(N=C2SC(CC(=O)Nc3ccccc3)C(=O)N2CC2CCCO2)cc1 (configuration not stated)
    -93, 113, i, 0.86, 4, -1.8, 102
> CCS(=O)(=O)NCc1ccc2c(c1)cc(C)n2C
    ., ., i, 1, -7, -2.8, 99
> CC(=O)Cn1cnc2c(sc3nc(C)cc(C)c32)c1=O
    ., ., i, 0.93, ., ., 94
> CSCCC(NC(=O)c1ccco1)C(=O)O (configuration not stated)
    52, 123, i, 0.84, 3, -0.9, 99
> CC(C)N(C(=O)COC(=O)CNC(=O)c1ccc(Br)cc1)c1ccccc1
    ., ., i, 1, 4, -1.0, 104
> Cn1c(C(=O)Nc2ccc3c(c2)OCCO3)cc2c(=O)n(C)c3ccccc3c21
    ., ., ., ., 4, -2.0, 102
> Cc1ccc(NC(=O)CN2CCCCCC2)c(Br)c1
    ., ., i, 1, -9, -0.5, 100
> CCOC(=O)c1c(NC(=O)Cn2nnc(-c3ccc(Cl)cc3)n2)sc(C)c1C
    6, 96, i, 1.1, -3, -0.5, 95
